VDR inhibitor: vitamin D3 receptor (human) inhibition; P11473; VDR-SRC2-3 peptide fluorescence polarization, 2 h; Potency, µM, for the others: max response, negative = inhibition, hits mostly inhibitors; hit rate 0.93% among 400,000; active = well fitted inhibition curve with a large enough effect; note: series mostly up to about 120 µM
Target sequence (P11473 whole entry, looked up): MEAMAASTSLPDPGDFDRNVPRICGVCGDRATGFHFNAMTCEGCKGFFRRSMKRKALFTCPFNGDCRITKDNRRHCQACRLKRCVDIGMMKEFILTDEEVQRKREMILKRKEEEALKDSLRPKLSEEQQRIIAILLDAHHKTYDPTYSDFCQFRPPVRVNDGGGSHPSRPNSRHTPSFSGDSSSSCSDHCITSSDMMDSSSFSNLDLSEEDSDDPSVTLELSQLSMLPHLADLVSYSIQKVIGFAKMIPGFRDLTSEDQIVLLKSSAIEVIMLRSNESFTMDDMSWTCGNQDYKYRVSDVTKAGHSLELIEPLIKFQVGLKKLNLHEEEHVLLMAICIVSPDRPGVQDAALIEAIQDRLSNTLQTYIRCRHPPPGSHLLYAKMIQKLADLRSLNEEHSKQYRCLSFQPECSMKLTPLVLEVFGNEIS
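Measured by FP: displacement of SRC2-3 coactivator peptide from VDR by library compounds, following a two-hour ambient incubation.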
* = called active by the depositor; & = joins results of further samples. % is set by controls: 0 for no effect and ±100 for the full control effect; potency is the fitted concentration of half-maximal effect. An excerpt (hit frequency here may not be typical).

SMILES | VDR inhibitor
N#CC1=C(SCC(=O)c2ccc(Br)cc2)NC2=C(C(=O)CCC2)C1c1ccco1 (stereo not given) | 20%
O=C(Nc1cccc(-c2nnc(-c3ccccc3)o2)c1)C1CCCO1 (stereo not given) | -11%
Nc1c(N(Cc2ccco2)C(=O)COc2ccccc2F)c(=O)[nH]c(=O)n1Cc1ccccc1 | -7%
CN1CCC(=NNC(=O)c2cc(-c3ccc(Cl)cc3)n[nH]2)CC1 | 16%
CCn1c(SC)nnc1-c1ccc(S(=O)(=O)N2CCCCC2)cc1 | 1%
CCCCn1cnc2c(cnn2-c2ccc(Cl)cc2)c1=O | 17%
O=C(Cc1ccc2cccnc2c1)c1ccc(O)cc1O | 12%
Cc1[nH]c2ccccc2c1C1(O)C(=O)N(Cc2ccccc2Cl)c2ccccc21 (stereo not given) | -5%
COc1cc2c(cc1OC)CN(C(=O)c1ccc(S(=O)(=O)N3CCCCC3)cc1)CC2 | 0%
COc1ccc(-c2nc(Cn3c(SCc4cccc(Cl)c4)nc4ccncc43)c(C)o2)cc1 | 23%
Cc1c(/C=N/NC(=O)C(C)(C)Oc2ccc(Cl)cc2)cnn1C | -1%
CC(c1ccccn1)N(Cc1ccco1)C(=S)Nc1cccc(F)c1 (stereo not given) | 5%
Cc1cccc(NC(=O)CSc2nc(-c3ccccc3)cn2-c2ccccc2)c1C | 4%
COc1ccc(NC(=O)/C=C/C(=O)O)cc1Cl | -4%
CC1=N/C(=C\c2ccc([N+](=O)[O-])cc2)C(=O)N1c1ccc(Br)c(C)c1 | 30%
CC1Cc2cc(S(=O)(=O)N(C)c3ccc(Br)cc3)ccc2N1C(=O)C1CC1 (stereo not given) | 1%
CCCCOc1ccc(N(CC(=O)NC2CCCCC2)C(=O)CCC(=O)Nc2ccccn2)cc1 | -7%
O=C(O)C1CCN(c2nc(-c3ccccc3)nc3c2oc2ccccc23)CC1 | 3%
Cc1ccc(NC(=O)Cc2cc(C(=O)O)c3ccccc3n2)c(C)c1 | -15%
Cc1ccsc1CN(C)C(=O)c1ccc(Oc2ccccc2)cc1 | 8%
CCn1c(=O)c2c(cnn2C)c2ccccc21 | 3%
O=C(COc1ccc(Cl)cc1Cl)NC(=S)N1CCCc2ccccc21 | 18%
CNc1ccc(/C=C/C(=O)c2cccc3ccccc23)cc1[N+](=O)[O-] | -6%
O=C(CSc1nc2c([nH]c3ccccc32)c(=O)n1-c1ccccc1)N1CCCCC1 | 6%
C=CCn1c(=O)n(CCOC)c(=O)c2sc3ccccc3c21 | -5%
COc1cccc(NC(=O)CN(C)C(=O)c2cc(C)on2)c1 | -8%
Cc1ccc(S(=O)(=O)N2CCN(C(=O)c3c(-c4ccccc4)noc3C)CC2)cc1 | -26%
COc1ccccc1NC(=O)CSc1nnnn1C | -5%
CCOC(=O)c1c(NC(=O)CSc2nc3ccccc3o2)sc(C(C)=O)c1C | -1%
COC(=O)C1CC(O)CN1C(=O)Nc1cccc(C(F)(F)F)c1 (stereo not given) | 20%
Cc1cccc(NC(=O)c2nc[nH]c2C(=O)NCCCCCNC(=O)OC(C)(C)C)c1 | -5%
O=C(COC(=O)c1ccc(Cl)nc1)Nc1c(Cl)cccc1C(F)(F)F | -2%
Cc1ccnc(NS(=O)(=O)c2ccc(NC(=O)C34CC5CC(CC(C5)C3)C4)cc2)n1 | -2%
O=C(Cc1c[nH]c2ccccc12)N1CCN(c2ccccc2)CC1 | 6%
COc1ccc(S(=O)(=O)N(c2onc(C)c2Cl)S(=O)(=O)c2ccc(OC)c(OC)c2)cc1OC | -11%
CC(=O)C1=C(C)NC(=S)NC1c1cc([N+](=O)[O-])ccc1O (stereo not given) | -6%
COc1ccccc1CNC(=O)C(=O)NCC1OCCCN1S(=O)(=O)c1ccc(F)cc1C (stereo not given) | -15%
COc1ccc(NC(=O)c2cc3c(=O)n(Cc4ccco4)ccc3nc2C)cc1 | -4%
COc1ccc(-n2cnnc2)cc1 | 0%
CC(NC(=O)Cn1nc(-c2ccccc2)c2ccccc2c1=O)c1ccccc1 (stereo not given) | -8%
O=C(Cc1ccsc1)NCC(c1ccco1)N1CCCCC1 (stereo not given) | 2%
CCCN1Cc2cccc(C(=O)NC(CC(=O)OCC)c3ccc(OC(C)C)cc3)c2C1=O (stereo not given) | 3%
CCS(=O)(=O)n1nc(-c2ccc(Cl)cc2)nc1SC | 10%
CCOc1ccc(NC(=O)c2cnn3c2NC(c2ccccc2)=CC3c2cccc(OC)c2OC)cc1 (stereo not given) | 6%
CCCCOCCCNS(=O)(=O)c1ccccc1 | -1%
CCc1ccccc1N(CC)C(=O)c1cn(C)c(=O)c2cc(OC)c(OC)cc12 | -9%
CC(C)N1CCN(Cc2ccc(C#CCCO)cc2)CC1CCO (stereo not given) | -18%
Cc1cc2ccccc2nc1SCC(=O)NC1CCCCC1 | -3%
O=C(CN(c1ccc(F)cc1)S(=O)(=O)c1ccc2c(c1)OCCO2)NCc1ccccn1 | -10%
COc1cccc(-c2c(C(=O)O)cc(O)c3ccc(OC)cc23)c1 | 8%

Next section
SMILES | VDR inhibitor
O=C1COc2ccc(S(=O)(=O)CCC(=O)N3CCN(c4cccc(Cl)c4)CC3)cc2N1 | -6%
Cc1ccc(NC(=O)COc2ccccc2C(=O)Nc2ccccc2)cc1Cl | 3%
CC1CCCCN1S(=O)(=O)c1ccc(S(=O)(=O)NCCc2ccncc2)cc1 (stereo not given) | -9%
CCCCN1CCc2nc(Nc3ccc(OC)cc3OC)ncc2C1 | 19%
Cc1ccc(CNC(=O)CCc2c(C)c3ccc(O)c(C)c3oc2=O)cc1 | 1%
O=c1c(-c2ccc(Cl)cc2)nc2cnc(N3CCOCC3)nc2n1CCc1ccccc1 | -6%
CC(C)C(=O)N1c2nc(C(C)C)nn2C2(CCCCC2)[C@@H]2CCCC[C@@H]21 | -9%
OCC1(CCCc2ccccc2)CCN(C2CCSCC2)CC1 | -6%
COc1cccc(C(=O)Nc2nnc(S(=O)(=O)N3CCOCC3)s2)c1 | 15%&17%
Cc1ccc(C(=O)N2CC(=O)Nc3ccc(F)cc3C2c2ccc(F)cc2)cc1 (stereo not given) | 6%
COc1ccc(C(=O)CN2CCN(S(=O)(=O)c3ccc(F)cc3)CC2)cc1 | 8%
Cc1ccc(NC(=O)COC(=O)c2cccc(N3C(=O)c4ccccc4C3=O)c2)cc1 | 22%
COC(=O)CSc1nnc(C)c(=O)[nH]1 | 6%
CC1=N/C(=C\c2ccc([N+](=O)[O-])cc2)C(=O)N1c1ccc(Cl)cc1 | -8%
Cc1ccc(C(=O)NC2CCN(C(=O)Nc3ccc(F)cc3)CC2)cc1 | -6%
O=C(CSc1n[nH]c(-c2cccs2)n1)NCCc1ccccc1 | 3%
O=C(C[C@@H]1C/C=C\C[C@@H](Cc2ccc(F)cc2)C(=O)OCCNC1=O)NCCO | -14%
CN1CCN(C(=O)C2=C[C@H](c3coc4ccccc4c3=O)C[C@H](OCc3ccc(CO)cc3)O2)CC1 | -8%
Cc1oc2cc(O)ccc2c(=O)c1N1C(=O)c2ccccc2C1=O | -3%
O=C(Nc1nccs1)C1CCN(S(=O)(=O)c2ccc3c(c2)OCCCO3)CC1 | 16%
Cc1ccc(NC(=O)CSCC(=O)NCCc2ccccc2)c(C)c1 | -20%
Cc1cc(C(=O)COc2ccc(-c3nnco3)cc2)c(C)n1Cc1ccccc1 | -2%
Cc1cc(C)cc(-n2ncc3c2CCCC3NC(=O)c2cc(C)oc2C)c1 (stereo not given) | -19%
Cn1c(NCc2cccnc2)nc2c1c(=O)n(Cc1ccccc1F)c(=O)n2C | -1%
CCc1ccc2c(c1)C(c1ccc([N+](=O)[O-])cc1)=NNC(c1ccc(Br)cc1)=N2 | -16%

Four records drawn at random from the list so far, as already listed:
SMILES | VDR inhibitor
O=C(CN(c1ccc(F)cc1)S(=O)(=O)c1ccc2c(c1)OCCO2)NCc1ccccn1 | -10%
CCn1c(=O)c2c(cnn2C)c2ccccc21 | 3%
CC1=N/C(=C\c2ccc([N+](=O)[O-])cc2)C(=O)N1c1ccc(Cl)cc1 | -8%
Cc1oc2cc(O)ccc2c(=O)c1N1C(=O)c2ccccc2C1=O | -3%

2 of the compounds above, with values ahead of the structure.
VDR inhibitor,structure
-19%,Cc1cc(C)cc(-n2ncc3c2CCCC3NC(=O)c2cc(C)oc2C)c1 (stereo not given)
-6%,Cc1ccc(C(=O)NC2CCN(C(=O)Nc3ccc(F)cc3)CC2)cc1

Compounds shown so far containing bromine (four):
SMILES | VDR inhibitor
N#CC1=C(SCC(=O)c2ccc(Br)cc2)NC2=C(C(=O)CCC2)C1c1ccco1 (stereo not given) | 20%
CC1=N/C(=C\c2ccc([N+](=O)[O-])cc2)C(=O)N1c1ccc(Br)c(C)c1 | 30%
CC1Cc2cc(S(=O)(=O)N(C)c3ccc(Br)cc3)ccc2N1C(=O)C1CC1 (stereo not given) | 1%
CCc1ccc2c(c1)C(c1ccc([N+](=O)[O-])cc1)=NNC(c1ccc(Br)cc1)=N2 | -16%

Next records follow:
SMILES	VDR inhibitor
COc1ccc(/C=N\N=C2/SC(CC(=O)O)C(=O)N2c2ccc(O)cc2)cc1OC (stereo not given)	-9%
Cc1cc([N+](=O)[O-])ccc1NC(=O)CCC(=O)N1CCCCCC1	-1%
COc1cc(Cl)c(C)cc1Nc1nc2ccccc2c2nnc(C)n12	3%
CCc1ccc(-c2cc(C)no2)cc1S(=O)(=O)N1CCN(c2cc(C)ccc2C)CC1	3%
Cc1c(NC(=O)c2ccc(Cl)cc2)cc(C(C)C)c(O)c1S(=O)(=O)c1ccc(Cl)cc1	4%
CCCCn1c(N)c(N(CC)C(=O)C2CCC2)c(=O)[nH]c1=O	-3%
N#Cc1ccccc1S(=O)(=O)N1CCN(C(=O)CN2CCCSc3ccccc32)CC1	-2%
O=C(COC(=O)c1ccccc1)Nc1cccc(S(=O)(=O)N2CCCCC2)c1	0%
Cc1cc(C)c(OCC(=O)N(Cc2ccco2)Cc2ccco2)c(C)c1	10%
Cc1cc(-c2nnc(SCC(=O)Nc3nc(-c4ccc(Cl)cc4)cs3)o2)no1	-2%
COc1ccc(N2CCN(c3ccc([N+](=O)[O-])nc3)CC2)cc1	15%
CCCNC(=O)CN(C)S(=O)(=O)c1ccc(F)cc1	0%
C/C(=N\Nc1ccc(Cl)nn1)c1ccccc1O	-1%
COc1cccc(C(=O)Cn2c(N3CCCCC3)nc3c2c(=O)n(C)c(=O)n3C)c1	-6%
O=C(c1ccccc1)N1CCCCC1	3%
CC(=O)Nc1ccc(S(=O)(=O)Nc2c(C)n(C)n(-c3ccccc3)c2=O)cc1	7%
Cn1c(NC(=O)c2ccccc2Br)cc(=O)n(C)c1=O	-6%
CC(=O)N1c2ccc([N+](=O)[O-])cc2NC(=O)CC1C (stereo not given)	9%
CCOc1ccc(N2CC(C(=O)NCCCc3ccccc3)CC2=O)cc1 (stereo not given)	12%
CC(=O)C1C(=O)CC(C)(O)C(C(C)=O)C1c1ccccc1 (stereo not given)	-19%
COc1ccc(C2NC(C(=O)O)Cc3c2[nH]c2ccccc32)cc1OC (stereo not given)	5%
O=C(NCCCN1CCOCC1)c1cccs1	-1%
CC(C)CNC(=S)NNC(=O)c1ccc(OC(F)F)cc1	-5%
C=Cc1ccc(CN2C(=O)c3ccccc3Sc3ccc(C(=O)OCc4ccco4)cc32)cc1	11%
COCCCN(C(=O)c1cc(C)oc1C)c1c(N)n(CC(C)C)c(=O)[nH]c1=O	9%
C/C(=N/NC(=O)c1cc(-c2ccc(Cl)s2)[nH]n1)c1ccco1	6%
CCNc1nc(NC(N)=S)nc(NC(C)(C)C)n1	10%
Cc1ccccc1NC(=O)NCCCN1CCCC1=O	23%
CCc1ccccc1-n1cnc2cc(C(=O)NC3CCCCCC3)ccc21	5%
CCCn1nnc(NC(=O)c2cccnc2Cl)n1	-4%
O=C(Nc1nnc(S(=O)(=O)N2CCN(c3ccc(F)cc3)CC2)s1)c1ccccc1	0%
CCc1ccc(NCc2nc(-c3ccccc3)no2)cc1	-12%
O=c1ccccn1CCOc1ccccc1Cl	-25%
Cc1cc(NS(=O)(=O)c2ccc(NC(=O)N[C@H](C(=O)O)C(C)C)cc2)no1	-1%
COC(=O)COc1ccc(S(=O)(=O)Nc2ccc(NC(C)=O)cc2)cc1	9%
COc1ccc(C(=O)N2CCC[C@@]3(CCN(Cc4nccs4)C3)C2)cc1	-19%
C=CCCN(C1CCCC1)S(=O)(=O)c1ccccc1Br	-19%&-1%
CC(C)N(CCc1ccncc1)C(=S)Nc1cccc(Cl)c1	-6%
COc1ccc2c(c1)C(=O)N(c1ccccc1OC)C(=O)C2	-20%
CCc1ncc(C)[nH]1	-18%
COc1cc(OC)c(NC(=O)Nc2nnc(N(C)C3CCCCC3)s2)cc1Cl	5%
CCc1ccc(NC(=O)CC2C(=O)OCCN2CC)cc1 (stereo not given)	-29%
NC(=O)C1CCN(C(=O)C2(NC(=O)Nc3cccc(F)c3)CCCCC2)CC1	8%
COc1ccc(C=O)cc1Cn1c(=O)n(CCC(=O)NCc2ccco2)c(=O)c2sccc21	-1%
Cc1cc(C)n(C(=O)COc2ccccc2C)n1	-19%
Clc1ccccc1Cn1nnc2c(N3CCOCC3)nc(C3CC3)nc21	8%
COc1cc(CNc2ccc(S(N)(=O)=O)cc2)ccc1OCC(=O)NC1CCCCC1	6%
CCOC(=O)C(=O)NNc1ccc(F)cc1	5%
CC1CCCCC1NC(=O)CN(C)S(=O)(=O)c1cccc2cccnc12 (stereo not given)	-14%
COc1ccc(CNc2nc(NCc3ccc(OC)cc3)c3ncn(C(C)C)c3n2)cc1	-5%
COc1ccc(-c2ccnc(-c3ccncc3)n2)cc1	-2%
Cc1ccc(C(=O)NC(=S)N2CCN(C)CC2)cc1Br	-4%
COC(=O)c1ccc(CNC(=O)COC(=O)c2cc(Cl)nc(Cl)c2)cc1	-14%
CC(C)Cc1ccc(S(=O)(=O)Nc2ccc3[nH]c(=O)[nH]c3c2)cc1	15%&-4%
COc1cccc(CNC(=O)Nc2cn(CC(C)C)c(=O)c3ccccc23)c1	5%
CCOc1ccc(S(=O)(=O)N2CCN(c3ncccn3)CC2)cc1	-3%
O=c1[nH]nc(SC2CCCCC2)c(=O)[nH]1	-9%
